# Mtb growth: Mycobacterium tuberculosis H37Rv growth inhibition, putative kinase inhibitor library, confirmatory dose response (AID 2842). M. tuberculosis H37Rv growth inhibition; higher % means a stronger effect; some inactives read as strong as hits. one-dose inhibition, % at 10 µg/mL; IC90 in µg/mL for titrated hits. 24,000 tested, 5.2% active;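 active = confirmed in a dose series; about a fifth of its hits are not listed in these tables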;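 note: bacteria incubated one week before Alamar blue readout; 0% = bacteria only wells and 100% = bacteria with high antibiotic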
# Numbers without * were called inactive. The list is partial; rates above refer to the full screens.
SMILES,Mtb growth
Cc1ccc(-c2nnc(NC(=O)c3cc(Cl)ccc3Cl)s2)cc1,5%
CCOC(=O)c1[nH]c2ccccc2c1NC(=S)Nc1ccc(Br)cc1,77%
Oc1c(C(Nc2ccccn2)c2ccc(F)cc2)ccc2cccnc12 (stereo not given),-12%
Cc1ccc2nc(NC(=O)CSc3nc4c(c(=O)n3C)SC(C)C4)sc2c1 (stereo not given),0%
Cc1cccc(NC(=O)CSc2[nH]c(=O)ncc2C)c1,-14%
COc1ccc(OC)c(NC(=O)c2oc3ccccc3c2NC(=O)Cc2ccc(F)cc2)c1,-3%
Cc1ccc(N2CC(NC(=O)c3ccc(Cl)cc3)CC2=O)cc1 (stereo not given),2%
Cc1ccc2nc(NC(=O)CCn3c(=O)oc4ccccc43)sc2c1,5%
CNC(=O)c1ccsc1NC(=O)c1ccc(S(=O)(=O)N2CCCCC2C)cc1 (stereo not given),75%
CCOc1ccccc1-c1nc(C(N)=O)c2[nH]c(=O)n(-c3ccc(C(C)(C)C)cc3)c2n1,8%
O=C(NC(Cc1c[nH]c2ccccc12)C(=O)O)c1ccc(F)cc1 (stereo not given),-10%
O=C(CSc1n[nH]c(=O)[nH]c1=O)N/N=C/c1ccccc1F,0%
COc1cc(C(=O)Nc2sc3c(c2C(N)=O)CCN(C)C3)cc(OC)c1OC,-4%
COc1ccccc1NC(=O)Cn1nnc(C(=O)NCCc2ccc(OC)c(OC)c2)c1N,-3%
Cc1cccc(C)c1NC(=O)CSc1nc(-c2ccc(F)cc2)nc2c1Cc1cccc(C)c1O2,-5%
CCOC(=O)c1nn(-c2ccc(C)cc2)c(=O)c2c(NC(=O)c3cccc(C)c3)scc12,-2%
COc1cccc(C(=O)NC2CC(=O)N(c3ccc(C)c(C)c3)C2)c1OC (stereo not given),-5%
NC(=O)CSc1ccc2nnc(-c3ccc(Cl)cc3)n2n1,-22%
COc1ccc(NC(=O)c2cnc3scc(C)n3c2=O)c(OC)c1,-7%
Cc1ccc(-c2nn(-c3ccccc3)cc2/C=C2\SC(=S)NC2=O)cc1F,4%
O=C(Nc1nc(-c2ccc(Cl)s2)cs1)c1coc2ccccc2c1=O,-15%
COc1cc(OC)cc(C(=O)Nc2nc3ccc4nc(C)sc4c3s2)c1,8%
Cn1cnnc1SCc1cc(=O)c(OCc2ccc(C(F)(F)F)cc2)co1,2%
COc1cccc(-c2noc(-c3cc(C4CC4)[nH]n3)n2)c1OC,9%
Cc1cc(C)cc(NC(=O)CSc2ncnc3c2nnn3Cc2ccccc2F)c1,4%
CCOc1ccccc1/C=N/Nc1nnc(-c2ccccc2)c(=O)[nH]1,2%
O=C(Cc1n[nH]c(=O)[nH]c1=O)N/N=C\c1ccccc1F,-6%
Cc1ccc(/C(O)=C2\C(=O)C(=O)N(c3ccccn3)C2c2cccc(Br)c2)cc1 (stereo not given),21µg/mL*
Cc1cc(=O)[nH]c2ccc(S(=O)(=O)Nc3ccccc3)cc12,-1%
Cc1ccc(N2CC(NS(=O)(=O)c3ccc4ccccc4c3)CC2=O)cc1 (stereo not given),6%
O=C(CSc1nc2c(c(=O)n1-c1ccc(Br)cc1)SCC2)NCc1ccccc1,5%
O=C(O)CCCCCN1C(=O)/C(=C/c2cccc(OCc3ccccc3)c2)SC1=S,2%
O=C(Nc1nnc(-c2cccnc2)o1)c1cccc(Br)c1,83%
CCOC(=O)N1CCN(c2ncnc3c2cnn3-c2ccc(C)c(Cl)c2)CC1,12µg/mL*
CCc1ccc(/C=C/c2nc3ccccc3[nH]c2=O)cc1,7%
Cc1cc(SCC(=O)NCc2ccco2)nc(=O)[nH]1,-6%

# 24 consecutive entries out of the list so far, quoted:
SMILES,Mtb growth
COc1cc(C(=O)Nc2sc3c(c2C(N)=O)CCN(C)C3)cc(OC)c1OC,-4%
COc1ccccc1NC(=O)Cn1nnc(C(=O)NCCc2ccc(OC)c(OC)c2)c1N,-3%
Cc1cccc(C)c1NC(=O)CSc1nc(-c2ccc(F)cc2)nc2c1Cc1cccc(C)c1O2,-5%
CCOC(=O)c1nn(-c2ccc(C)cc2)c(=O)c2c(NC(=O)c3cccc(C)c3)scc12,-2%
COc1cccc(C(=O)NC2CC(=O)N(c3ccc(C)c(C)c3)C2)c1OC (stereo not given),-5%
NC(=O)CSc1ccc2nnc(-c3ccc(Cl)cc3)n2n1,-22%
COc1ccc(NC(=O)c2cnc3scc(C)n3c2=O)c(OC)c1,-7%
Cc1ccc(-c2nn(-c3ccccc3)cc2/C=C2\SC(=S)NC2=O)cc1F,4%
O=C(Nc1nc(-c2ccc(Cl)s2)cs1)c1coc2ccccc2c1=O,-15%
COc1cc(OC)cc(C(=O)Nc2nc3ccc4nc(C)sc4c3s2)c1,8%
Cn1cnnc1SCc1cc(=O)c(OCc2ccc(C(F)(F)F)cc2)co1,2%
COc1cccc(-c2noc(-c3cc(C4CC4)[nH]n3)n2)c1OC,9%
Cc1cc(C)cc(NC(=O)CSc2ncnc3c2nnn3Cc2ccccc2F)c1,4%
CCOc1ccccc1/C=N/Nc1nnc(-c2ccccc2)c(=O)[nH]1,2%
O=C(Cc1n[nH]c(=O)[nH]c1=O)N/N=C\c1ccccc1F,-6%
Cc1ccc(/C(O)=C2\C(=O)C(=O)N(c3ccccn3)C2c2cccc(Br)c2)cc1 (stereo not given),21µg/mL*
Cc1cc(=O)[nH]c2ccc(S(=O)(=O)Nc3ccccc3)cc12,-1%
Cc1ccc(N2CC(NS(=O)(=O)c3ccc4ccccc4c3)CC2=O)cc1 (stereo not given),6%
O=C(CSc1nc2c(c(=O)n1-c1ccc(Br)cc1)SCC2)NCc1ccccc1,5%
O=C(O)CCCCCN1C(=O)/C(=C/c2cccc(OCc3ccccc3)c2)SC1=S,2%
O=C(Nc1nnc(-c2cccnc2)o1)c1cccc(Br)c1,83%
CCOC(=O)N1CCN(c2ncnc3c2cnn3-c2ccc(C)c(Cl)c2)CC1,12µg/mL*
CCc1ccc(/C=C/c2nc3ccccc3[nH]c2=O)cc1,7%
Cc1cc(SCC(=O)NCc2ccco2)nc(=O)[nH]1,-6%

# Remaining list, next part
SMILES,Mtb growth
CCN1C(=O)/C(=C2\SC(=S)NC2=O)c2cc(Br)ccc21,4%
O=C(/C=C/c1cccs1)Nc1nnc(-c2ccco2)o1,6µg/mL*
O=C(Nc1ccc(-c2ccc3nnc(-c4ccccn4)n3n2)cc1)c1cccc(F)c1,1%
CCSc1nnc(NC(=O)C2CC(=O)N(c3ccc(F)cc3)C2)s1 (stereo not given),9%
Cc1ccnc(SCc2cc(=O)c(OC(=O)c3cc(Br)ccc3Cl)co2)n1,-12%
O=S(=O)(Nc1cccc(-c2ccc(N3CCCC3)nn2)c1)c1ccc2ccccc2c1,-5%
COc1ccc(C2NC(=O)NC(C)=C2C(=O)Nc2cccc(C)c2C)cc1 (stereo not given),-6%
O=C(Nc1nnc(-c2ccccc2)s1)c1c(F)cccc1F,0%
O=C(Nc1c(C(=O)Nc2ccc3c(c2)OCO3)oc2ccccc12)c1ccc2c(c1)OCO2,-8%
CCCSc1nc2c(c(=O)[nH]1)C(c1ccccc1)C1=C(CCCC1=O)N2 (stereo not given),-7%
COc1ccc(N2CC(NS(=O)(=O)c3cccnc3)CC2=O)cc1OC (stereo not given),-1%
CCOc1ccc2c(c1)c(=O)c(S(=O)(=O)c1ccc(F)cc1)cn2Cc1ccc(F)cc1,0%
CC(=O)C(C)n1c(=O)c2c(nc3n(-c4cc(C)ccc4C)c(C)cn23)n(C)c1=O (stereo not given),-7%
Nc1nc(SCC(=O)Nc2cc(C(F)(F)F)ccc2Cl)[nH]c(=O)c1NC(=O)c1ccc(Br)o1,-11%
CCOCC(=O)Nc1c(C(=O)Nc2ccc(C)c(C)c2)oc2ccccc12,3%
O=C(O)/C=C/C(=O)NCc1cn(-c2ccccc2)nc1-c1ccccc1,-6%
COc1ccccc1Cn1cc(C(=O)c2ccc(Cl)cc2)c(=O)c2ccccc21,9%
Cc1ccc(CSc2nnc3[nH]c(=O)c(C)c(C)n23)cc1,0%
O=C(CS(=O)(=O)c1c[nH]c2ccccc12)NC1CCCCC1,3%
Cc1nnc(NC(=O)CSc2cn(CCNC(=O)c3ccccc3)c3ccccc23)s1,5%
Cc1cc2nnc(SCC(=O)Nc3ccc(Cl)cc3)n2c2ccccc12,-3%
Cc1nnc(Nc2ccc(N3CCOCC3)cc2)[nH]c1=O,0%
CCCNC(=O)C(=O)Nc1ccc2c(c1)N(S(=O)(=O)c1cccs1)CCC2,-5%
CCOc1ccc2nc(NC(=O)c3ccc(Br)s3)sc2c1,9%
O=C(CSc1ccc2nnc(-c3cccc(F)c3)n2n1)N1CCN(c2ccccc2)CC1,-11%
NC(=O)c1ccsc1NC(=O)c1ccc(S(=O)(=O)N2CCCCC2)cc1,23%
CCOc1ccc(-c2nnc3ccc(SCC(=O)N4CCc5ccccc54)nn23)cc1,8%
CC(=O)Nc1ccc(NC(=O)CSc2nnc(CNC(=O)c3ccc(C(C)(C)C)cc3)o2)cc1,-11%
CCOc1cccc2cc(-c3nnc(NCc4ccco4)s3)c(=O)oc12,5%
O=C(NC1CC(=O)N(c2cccc(F)c2)C1)c1ccc([N+](=O)[O-])cc1 (stereo not given),0%
Cc1ccccc1-n1c(O)c(C2=c3ccccc3=NC2=O)sc1=S,8%
CCOc1ccccc1NC(=O)CSc1nc(-c2ccc([N+](=O)[O-])cc2)nc2c1c(=O)n(C)c(=O)n2C,-9%
Cc1ccc(SCCC(=O)Nc2nnc(-c3cccnc3)o2)cc1,85%
COC(=O)c1ccccc1NC(=O)CC1Sc2ccccc2NC1=O (stereo not given),-1%
COc1ccc(-c2nnc3ccc(SCC(=O)Nc4cc(C)on4)nn23)cc1,-3%
CCC(C)Sc1nc2c(c(=O)[nH]1)C(c1ccccc1)C1=C(CCCC1=O)N2 (stereo not given),-4%

# Of the compounds above, these contain a COOH group.
SMILES,Mtb growth
O=C(NC(Cc1c[nH]c2ccccc12)C(=O)O)c1ccc(F)cc1 (stereo not given),-10%
O=C(O)CCCCCN1C(=O)/C(=C/c2cccc(OCc3ccccc3)c2)SC1=S,2%
O=C(O)/C=C/C(=O)NCc1cn(-c2ccccc2)nc1-c1ccccc1,-6%

# (next part)
SMILES,Mtb growth
CC1CCc2c(sc(NC(=O)c3cc(=O)c4ccccc4o3)c2C(N)=O)C1 (stereo not given),-10%
Fc1ccc(-c2csc3ncnc(Sc4nnnn4-c4ccccc4)c23)cc1,38%
O=C(CSc1nc2c(c(=O)n1-c1ccc([N+](=O)[O-])cc1)SCC2)NCc1ccco1,-13%
COc1ccc(NC(=O)CC2C=CS(=O)(=O)C2)cc1 (stereo not given),-3%
Cn1c(=O)c2c(SCc3ccc(C(F)(F)F)cc3)nc(-c3cccs3)nc2n(C)c1=O,-1%
O=C(Nc1nnc(-c2cc(Cl)ccc2Cl)o1)c1cc2ccccc2oc1=O,-2%
CCOc1cc(-c2nnc(NC(=O)c3ccc(C(C)=O)cc3)o2)cc(OCC)c1OCC,-4%
Cc1ccc(C(=O)O)c(=O)n1C,-1%
CSc1nnc(CSc2ncccn2)n1-c1ccc(F)cc1,4%
O=C(CSc1nc(=O)n(CC2CCCO2)c2c1CCCC2)Nc1nc2ccccc2s1 (stereo not given),-1%
Cc1cccc(-c2nnc(NC(=O)Cc3ccccc3)s2)c1,6%
COc1ccc(-n2nnc3c(SCC(=O)NCCc4ccc(OC)c(OC)c4)ncnc32)cc1,-1%
CCCOC(=O)CC1Sc2ccc(C(F)(F)F)cc2NC1=O (stereo not given),2%
Cc1ccc(S(=O)(=O)N2CCN(C(=O)C(C)Cn3cncn3)CC2)cc1 (stereo not given),-5%
Cc1ccc2c(c1)c(=O)c(C(=O)c1ccccc1)cn2Cc1cccc(F)c1,-1%
CCC(C)Sc1nc2c(c(=O)[nH]1)C(c1ccncc1)C1=C(CCCC1=O)N2 (stereo not given),-5%
CCCCCn1c(SCc2c(F)cccc2Cl)nc2c1c(=O)[nH]c(=O)n2C,-10%
CCCCNc1nc2ccccc2nc1NS(=O)(=O)c1cccc2nsnc12,-4%

# Bioassay records: PubChem BioAssay, Southern Research Institute
